Screening results as filed in PubChem.
Rango dissoc inh = inhibitors of RanGTP-induced Rango-importin beta complex dissociation | O95149+P62826 | Biochemical FRET Rango-importin beta, RanGTP-induced dissociation | Potency, µM (highest dose often 46.1 µM), for the others: at the top dose activity change, negative = inhibition | actives 0.071% (n = 340,000); active means falling FRET ratio curve, often poorly fitted, with flat reads before Ran was added; inconclusive means other falling curves, or compound fluorescence or quenching; inactive means flat or rising ratio curve;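 note: potency is the fitted concentration of half-maximal effect; % of control where 0% means no effect; nearly all actives have a fitted effect of over 45% in size; -100% = wells without RanGTP and RCC1; the record marks most hits as doubtful in a second field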
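Two FRET readings bracket the reaction: one 5 min after compound meets Rango–importin beta, another 45 min after RanGTP-RCC1 (0.6 uM Ran, 0.2 uM RCC1, 2 mM GTP) is added. Only the second defines inhibition.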
GLA inh pH 4.5 = alpha-galactosidase A (human) inhibition, pH 4.5 | purified enzyme, 4-MU-alpha-Gal fluorescence, pH 4.5 | activity change, negative = inhibition, % at 105 µM | 230,000 tested, under 10 active | AID 1467; inconclusive = small, poorly fitted or top-dose-only inhibition, or a rising curve; inactive = flat fitted curve, though single readings scatter; no compound was filed as active;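 note: 0% = full activity with enzyme and -100% = basal without enzyme; dose as in the result columns while the protocol names 77 µM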
Target sequence (P06280 whole entry, looked up): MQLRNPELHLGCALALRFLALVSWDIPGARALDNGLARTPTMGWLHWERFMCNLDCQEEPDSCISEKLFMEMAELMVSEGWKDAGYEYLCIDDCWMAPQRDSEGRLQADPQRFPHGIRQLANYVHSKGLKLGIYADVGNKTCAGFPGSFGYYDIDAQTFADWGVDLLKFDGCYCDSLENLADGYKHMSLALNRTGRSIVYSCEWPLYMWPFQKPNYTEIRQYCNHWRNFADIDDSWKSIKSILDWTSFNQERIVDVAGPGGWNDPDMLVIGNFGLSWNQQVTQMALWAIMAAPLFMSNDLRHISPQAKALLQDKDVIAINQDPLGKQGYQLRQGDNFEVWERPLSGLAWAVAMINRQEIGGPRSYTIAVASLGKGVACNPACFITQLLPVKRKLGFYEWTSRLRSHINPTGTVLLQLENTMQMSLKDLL
miR-21 FLuc = raises the signal of a miR-21 reporter; HeLa miR-21 FLuc reporter, luciferase, 48 h; Potency, µM (doses to about 38.3 µM), inactives show at the highest dose reporter change, positive = more light; 340,000 tested, under 10 active; AID 2288; active = well fitted rising curve with a large enough effect; inconclusive = small, poorly fitted or top-dose-only effect; inactive = no such curve, though single readings can be large or run the other way;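 note: % of control where 0% means no effect; miR-21 action dims this reporter so a rising signal means less miR-21 action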
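Using DMEM plus 10% FBS, HeLa miR-21-FLuc cells are incubated with test compounds (final up to about 40uM) for 48 hours; firefly luciferase signal is then imaged following reagent-mediated lysis.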
Rango complex inh = prevents formation of the Rango-importin beta complex | Q14974 | Rango CFP/YFP FRET sensor + importin beta, 45 min | Potency, µM (titrated, usually from 92.2 µM), without a hit: at the highest dose inhibition of complex formation | actives 0.031% (n = 340,000) | AID 540263; active = rising FRET ratio curve, often small or poorly fitted; inconclusive = mostly compound fluorescence or quenching in the first reads; inactive = flat curves in all reads;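 note: potency is the fitted concentration of half-maximal effect; 0% = DMSO wells and 100% = buffer wells lacking importin beta; nearly all actives have a fitted effect of over 15% in size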
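Inhibition scored from the CFP 486 nm/YFP 530 nm FRET ratio 45 min after adding 0.125 microM importin beta to 50 nM Rango biosensor preincubated 5 min with compound (room temperature, PBS with DTT, Tween-20, BSA). No-importin wells as positive control.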
An asterisk follows results filed as active; ? = inconclusive; . = no result given; & = joins results of further samples. This is a subset; count on the stated rates, not on these rows.

Every second line gives: Rango dissoc inh	GLA inh pH 4.5	miR-21 FLuc	Rango complex inh
- O=C(COC(=O)c1ccc(O)cc1O)Nc1ccc2c(c1)OCCO2
  -11%	.	.	0.6%
- Cc1ccc(CSc2nnc(NC(=O)C3=COCCO3)s2)cc1
  5%	.	.	1.3%
- CNC(=O)c1ccsc1NC(=O)c1ccc(S(=O)(=O)N2CCOCC2)cc1
  6%	-3	0%	-1.1%
- O=C(O)c1cccc(NS(=O)(=O)c2ccc(Cl)c(C(=O)O)c2)c1
  7%	5	-2%	0.9%
- Cc1noc(NS(=O)(=O)c2ccc(NC(=O)CSc3nnc4c(n3)[nH]c3ccccc34)cc2)c1C
  2%	-23	-3%	0.1%
- CC(C)C[C@H](NC(=O)C1CCN(S(=O)(=O)c2ccccc2)CC1)C(=O)NCc1ccncc1
  10%	.	1%	-2.8%
- c1ccc2c(c1)CCN(c1nc3ccccc3n3cnnc13)C2
  -8%	0	0%	0.1%
- CSC(=O)NC12CC3CC(CC(C)(C3)C1)C2
  -16%	5	-4%	?
- CCN1CCN(c2ccc(S(=O)(=O)N3CCOCC3)cc2NC(=O)c2ccc(Cl)s2)CC1
  1%	.	.	0.6%
- COc1ccccc1-c1ccc(SCc2ccc(C)cc2)nn1
  -16%	-7	-45%	3.7%
- COC1CCN(C(=O)CC2C(=O)NCCN2CC2CCCCC2)CC1 (stereo not given)
  6%	6	-5%	-3.1%
- Cc1ccc(OCCCC(=O)Nc2ccc(S(=O)(=O)Nc3ccccn3)cc2)cc1
  20%	6	-6%	0.1%
- CCN(c1ccc(C(=O)CN2C(=O)NC3(CCOc4ccccc43)C2=O)cc1)S(C)(=O)=O (stereo not given)
  -18%	.	.	-3.7%
- CCOc1ccc(S(=O)(=O)Nc2cccnc2)cc1
  -13%	5	1%	1.4%
- CCOc1ccc(NC(=O)CC(Cc2cc(C)cc(C)c2)C(=O)O)cc1 (stereo not given)
  -3%	.	-4%	-1.7%
- COc1ccc2nc(SCC(=O)Nc3c(C)cc(C)cc3C)[nH]c2c1
  3%	3	-1%	1.5%
- O=CNc1ccc(S(=O)(=O)NCc2ccccc2)cc1
  1%	6	1%	0.3%
- CC(C)CN1C(=O)/C(=C(/C#N)C(=O)NC2CCCCC2)c2ccccc21
  3%	-5	0%	1.5%
- CC(C)C(C)(C#N)NC(=O)CSc1nc2scc(-c3ccc(F)cc3)c2c(=O)n1Cc1ccccc1 (stereo not given)
  -2%	-1	-5%	-2.3%
- COc1ccc(N2CCN(C(=O)CCCCCn3c(=S)[nH]c4cc5c(cc4c3=O)OCO5)CC2)cc1
  4%	.	-2%	-0.3%

3 compounds picked at random from those above, as already listed:
Every second line gives: Rango dissoc inh	GLA inh pH 4.5	miR-21 FLuc	Rango complex inh
- c1ccc2c(c1)CCN(c1nc3ccccc3n3cnnc13)C2
  -8%	0	0%	0.1%
- CC(C)CN1C(=O)/C(=C(/C#N)C(=O)NC2CCCCC2)c2ccccc21
  3%	-5	0%	1.5%
- CC(C)C[C@H](NC(=O)C1CCN(S(=O)(=O)c2ccccc2)CC1)C(=O)NCc1ccncc1
  10%	.	1%	-2.8%

Next section:
Every second line gives: Rango dissoc inh	GLA inh pH 4.5	miR-21 FLuc	Rango complex inh
- CC(C)n1c(O)c(N=Nc2ccccn2)c2ccccc21
  -9%	7	-7%	-0.1%
- CCCCNC(=O)COC(=O)c1ccc(SC)cc1OC
  -11%	-1	-15%	3.4%
- CCCc1c(C(=O)Nc2ccc(N3CCOCC3)cc2)cnn1-c1ccccc1
  2%	-1	9%	-0.2%
- O=C(O)CN1C(=O)C(=O)N(Cc2c(F)cccc2Cl)C1=O
  4%	.	-1%	1.9%
- Cc1cccc(NC(=O)CSc2nc3ccccc3c3nc(CCc4c(C)n[nH]c4C)nn23)c1
  23%	1	26%&2%	0.9%
- CCCCNC(=S)NNC(=O)c1csc(C(C)C)c1
  -5%	-4	-45%	-3.8%
- c1ccc(-c2ncc3ccccn23)cc1
  -12%	-18	-10%	?
- O=C(O)c1cc(-c2ccncc2)nc2ccc(F)cc12
  .	-11	-7%	.
- CCOC(=O)Cn1c(C)nc2c(C(=O)OCC)sc(C)c2c1=O
  7%	-6	-4%	-2.8%
- CCOC(=O)C1CCCN(S(=O)(=O)c2ccc3c4c2CC(=O)N4CC(C)S3)C1 (stereo not given)
  -12%	.	5%	1.6%
- COc1cccc(OC)c1C(=O)N1CCN(Cc2ccc3c(c2)OCO3)CC1
  -3%	2	-5%	-3.4%
- COc1ccc(C(=O)OCC(=O)Nc2ccc3c(c2)OCCO3)c(OC)c1
  5%	.	.	-2.1%
- Cc1cc(OCC(=O)N[C@@H](CSCc2ccccc2)C(=O)O)c2c(C)c(C)c(=O)oc2c1
  -12%	.	1%	-2.8%
- CCCCOc1cccc(C(=O)Nc2ccc(NC(=O)c3ccco3)cc2)c1
  12%	.	-4%	-3.3%
- CN1C(=S)SC(/[N+]([O-])=C\c2ccc(Cl)cc2)C1(C)C (stereo not given)
  -6%	-1	-2%	?
- COc1ccc(-c2nc(CCNS(=O)(=O)c3ccc4c(c3)OCCO4)cs2)cc1
  10%	0	5%	-2.9%
- O=C(NCc1ccccc1)Nc1cccn(Cc2ccccc2)c1=O
  2%	-7	-26%	0.4%
- Cc1c(C(=O)NC2CC2)oc2ccccc12
  2%	.	.	0.8%
- O=C(COC(=O)c1cccs1)NCc1ccc2c(c1)OCO2
  0%	4	2%	0.4%
- CC(C)(C)OC(=O)NCCCC[C@@H](C(=O)NCCCCCCCCCCC(=O)N1CCN(C(=O)OC(C)(C)C)CC1)n1cc(CCCC(=O)O)nn1
  14%	.	.	-0.5%

Further compounds follow:
Every second line gives: Rango dissoc inh	GLA inh pH 4.5	miR-21 FLuc	Rango complex inh
- CCCCn1c(=S)[nH]c2c(oc3ccc(Cl)cc32)c1=O
  .	3	0%	.
- CC(=O)N1c2c(ccc3ccccc23)C(C)CC12CCCCC2 (stereo not given)
  3%	3	2%	-0.3%
- CC(=O)Nc1ccc(S(=O)(=O)Oc2ccc(N3C(=O)C4CCCCC4C3=O)cc2)cc1 (stereo not given)
  8%	-6	6%	-1.7%
- O=C(NCc1ccco1)c1ccc(Cn2c(=O)c3ccccc3n(Cc3cccc(Cl)c3)c2=O)cc1
  1%	7	-4%	2.8%
- CCOC(=O)CC1C(=O)NCCN1S(=O)(=O)c1ccc(Cl)cc1 (stereo not given)
  -4%	5	5%	4.3%
- Cc1sc(NC(=O)c2ccccc2)c(C(=O)N2CCN(C)CC2)c1C
  -9%	-6	-8%	-0.7%
- Cc1cccc(CC2SC(N3CCN(c4ccccc4)CC3)=NC2=O)c1 (stereo not given)
  1%	-9	-4%	1.8%
- Cc1ccc(C(=O)OCC(=O)NCCc2ccc(S(N)(=O)=O)cc2)o1
  -5%	.	.	2.9%
- O=CN1CCN(S(=O)(=O)c2ccc(Cl)c(C(=O)O)c2)CC1
  10%	-2	0%	3.7%
- CCOc1ccc(CCNC(=O)COC(=O)c2ccc(F)c(S(=O)(=O)N3CCOCC3)c2)cc1OCC
  2%	.	.	-2.7%
- O=C(COC(=O)c1ccc(O)cc1O)Nc1nnc(-c2ccccc2)o1
  -5%	.	.	3.0%
- Cc1nc(C(C)NC(=O)CCc2nnc(CCCc3ccccc3)o2)c(C)s1 (stereo not given)
  2%	0	-59%	?
- CC12CCC(C(=O)N(CSC(=S)N/N=C\c3ccccc3O)C1=O)C2(C)C (stereo not given)
  ?	1	-6%	?
- Cc1ccc(F)cc1NCC(=O)Nc1ccc(Br)cc1
  1%	-11	-41%	-4.3%
- Cc1occc1-c1nnc(SCC(=O)NCC2CCCO2)n1C (stereo not given)
  ?	2	-9%	-2.5%
- Cc1ccc(C)c(NC(=O)C2C3CCCC2C3c2ccccc2)c1 (stereo not given)
  -5%	11	1%	0.0%
- COC(=O)C(C)Nc1cccc(Br)c1 (stereo not given)
  25%	1	-1%	0.4%
- CC(C)NC(=O)CSc1nnc(CNC(=O)OC(C)(C)C)n1C
  -3%	7	3%	-1.8%
- O=C(Nc1cc(Br)ccc1O)c1cc(-c2ccc3c(c2)OCO3)on1
  1%	.	-42%	0.3%
- CN(C(=O)CSc1nnc(-c2ccc(F)cc2)n1C)C1CCS(=O)(=O)C1 (stereo not given)
  5%	.	.	-0.4%

The listing continues:
Every second line gives: Rango dissoc inh	GLA inh pH 4.5	miR-21 FLuc	Rango complex inh
- CC(=O)N1CCOc2ccc(S(=O)(=O)N3CCC(C(=O)Nc4ccccc4F)CC3)cc21
  13%	.	4%	2.9%
- Cc1cccc(NCc2ccccc2O)n1
  -10%	-2	-17%	-2.3%
- Cc1c(C(=O)N2CCCc3ccccc32)sc2nc(-c3ccccc3)cn12
  -16%	0	-13%	-0.1%
- CC(=O)N1CCN(c2nc(-c3cccs3)nc3ccccc23)CC1
  4%	-2	0%	4.4%
- COc1cccc(-c2c(-c3cc(OC)cc(OC)c3)n(C)c3ccc(-c4cnc(OC)nc4)cc23)c1
  2%	.	.	1.3%
- Cc1nccn1CCc1n[nH]c(=S)n1Cc1ccccc1
  -3%	7	-2%	2.1%
- Cc1cccc(NC(=O)NNC(=O)c2ccc(C)c([N+](=O)[O-])c2)c1
  0%	3	-1%	-0.1%
- O=C(CN1C(=O)NC2(CCCCC2)C1=O)N1CCN(S(=O)(=O)c2cccc([N+](=O)[O-])c2)CC1
  -7%	.	.	-2.3%
- O=S(=O)(Nc1cc(F)ccc1F)c1cccc2nonc12
  -3%	.	1%	0.6%
- COc1ccc(NS(=O)(=O)c2cc(NC(=O)CCNC(C)=O)ccc2N2CCOCC2)cc1
  -6%	.	.	-2.0%
- CC(NC(=O)/C=C/c1ccc(Br)cc1)c1ccc(Cl)cc1 (stereo not given)
  -1%	-1	-2%	-2.5%
- O=C(Nc1ccc(F)cc1F)Nc1ccc(F)cc1F
  9%	11	-30%	-0.5%
- CCOc1ccccc1NC(=O)COC(=O)C(Cc1ccccc1)NC(=O)c1ccco1 (stereo not given)
  -8%	.	.	0.1%
- O=[N+]([O-])c1nn(-c2ccc3c(c2)OCCO3)n(O)c1=NC1CCCCCC1
  0%	-28	-48%	1.6%
- Nc1ncccc1OCc1cccc(C(F)(F)F)c1
  16%	6	-1%	-5.3%
- CCC1(c2ccccc2)NC(=O)N(CC(=O)NNC(=O)CCN2CCN(c3ccccc3)CC2)C1=O (stereo not given)
  0%	.	.	1.5%
- CCN(CC)CCNC(=O)C(C(=O)c1ccccc1)n1ccccc1=O (stereo not given)
  1%	-8	0%	0.1%
- COc1ccc(S(=O)(=O)n2cnc3ccccc32)cc1OC
  0%	.	-2%	1.3%
- NC(=O)c1ccc(NC(=O)CCc2nc3ccccc3s2)cc1
  0%	-6	0%	?
- C=CCc1cccc2cc(C(=O)N3CCN(c4ccccn4)CC3)c(=O)oc12
  -4%	0	-3%	?

New compounds follow:
Every second line gives: Rango dissoc inh	GLA inh pH 4.5	miR-21 FLuc	Rango complex inh
- O=C(N/N=C/c1ccco1)c1csc2c1CCCC2
  -1%	3	-43%	-0.2%
- Cc1ccsc1C(=O)OCC(=O)c1cc(C)n(CC2CCCO2)c1C (stereo not given)
  22%	-12	?	1.6%
- COc1cc(CNn2nnnc2N)cc(Br)c1OCc1c(Cl)cccc1Cl
  -9%	1	14%	-4.9%
- Cc1ccc(Sc2ncnc3onc(C)c23)c(C)c1
  23%	5	3%	2.1%
- CC1(NC(=O)Cc2ccc(S(=O)(=O)N3CCOCC3)s2)CCS(=O)(=O)C1 (stereo not given)
  -16%	.	.	-4.3%
- O=C(CN1C(=O)S/C(=C/c2cccn2-c2ccc(O)cc2)C1=O)N1CCCC1
  -22%	.	1%	-4.4%
- CCC(CC)C(=O)Nc1cccc(C(=O)Nc2ccc(OC)cc2[N+](=O)[O-])c1
  4%	4	-9%	-1.3%
- CC1=C(C(N)=O)C(c2ccc(Cl)cc2Cl)n2ncnc2N1 (stereo not given)
  20%	-5	-6%	1.0%
- CC(C)(Cc1ccc(O)cc1)NC(=O)c1ccccc1
  -1%	.	2%	0.9%
- CCn1c(SCC(=O)Nc2cc(C)on2)nnc1-c1ccc(OC)cc1
  -2%	-12	-1%	0.6%
- CC1CCCN(S(=O)(=O)CCNC(=O)c2ccccc2)C1 (stereo not given)
  20%	.	.	4.5%
- Cc1cc(C)n(-c2ncc3c(n2)N(C)CCOC3=O)n1
  2%	-2	-3%	6.2%
